NS1 inh: influenza NS1 inhibition; AID 2326; 270,000 compounds, 0.4% hits; Potency, µM (titrated, usually from 46.1 µM), for the others: at the highest dose activity, positive = more growth; S. cerevisiae slowed by influenza A NS1, growth recovery by OD600; active means well fitted rising curve with a large enough effect; inconclusive means small, poorly fitted or top-dose-only effect; inactive means no such curve, though single readings can be large or run the other way; note: nearly all actives have a fitted effect of over 50% in size
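Recovery from NS1-induced slow growth read by OD600 in budding yeast switched to galactose assay medium (pH 6.0, -URA) at 1:100 dilution. Compound 23 nl per well; the matching strain lacking NS1 serves as control.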
StopGo reporter: FMDV 2A StopGo reporter, luciferase signal. 410,000 compounds, 1.2% hits. AID 1159524. human cells with a luciferase reporter of 2A StopGo recoding; control for the full effect not named in the record. Potency, µM (highest dose often 57.9 µM), for the others: top-dose signal change, negative = less light; active = well fitted falling curve with a large enough effect; inconclusive = small, poorly fitted or top-dose-only effect; inactive = no such curve, though single readings can be large or run the other way; tested in HEK293T cells; note: % is set by controls: 0 for no effect and ±100 for the full control effect; nearly all actives have a fitted effect of over 45% in size; luciferase light after 4 h
Cruzain noTriton: cruzain (T. cruzi) inhibition without detergent; purified cruzain, Z-FR-AMC fluorescence, no detergent; Potency, µM, for the others: max response, negative = inhibition, usual class: inhibitors; 200,000 compounds, 2.3% hits; AID 1476;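 note: plate controls were enzyme without inhibitor for no effect and buffer without enzyme for full effect; nearly all actives have a fitted effect of over 40% in size; top concentration of the series not given in the record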
Target sequence (P25779 123-467 limits assumed): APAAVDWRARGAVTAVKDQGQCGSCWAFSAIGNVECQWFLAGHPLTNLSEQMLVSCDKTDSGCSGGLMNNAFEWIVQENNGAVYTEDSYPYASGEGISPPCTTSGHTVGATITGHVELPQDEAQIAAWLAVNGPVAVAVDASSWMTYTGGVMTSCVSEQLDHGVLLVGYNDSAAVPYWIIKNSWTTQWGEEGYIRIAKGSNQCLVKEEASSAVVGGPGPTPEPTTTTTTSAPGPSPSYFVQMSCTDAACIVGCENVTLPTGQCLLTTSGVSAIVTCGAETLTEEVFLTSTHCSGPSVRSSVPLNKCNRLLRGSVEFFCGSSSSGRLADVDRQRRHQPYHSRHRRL
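Purified cruzain at 1.5 nM, pre-incubated 15 min with compound at room temperature in 100 mM sodium acetate pH 5.5, 5 mM DTT, 0.00005% Triton X-100. Reaction started with 2 uM Z-FR-AMC; AMC fluorescence increase over 60 s gives rate.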
RE007 growth inh: less growth of the S. pombe RE007 Vpr strain; Potency, µM (top dose mostly 92.2 µM), for the others: at the top dose activity change, negative = less growth; S. pombe RE007 Vpr strain, BacTiter-Glo ATP luminescence, 24 h; control for the full effect not named in the record; 360,000 compounds, 0.21% hits; active = well fitted falling curve with a large enough effect; inconclusive = small, poorly fitted or top-dose-only effect; inactive = no such curve, though single readings can be large or run the other way;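 note: % is set by controls: 0 for no effect and ±100 for the full control effect; nearly all actives have a fitted effect of over 50% in size; the assay follows cell death caused by Vpr and the record does not say whether a fall means rescue or toxicity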
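Fission yeast RE007 carrying one integrated HIV-1 vpr copy, seeded at OD 0.01 in PMG+AL medium with 23 nL pinned compound. Grown 24 h at 30 degrees; viability read by BacTiter-Glo luminescence after 5 min.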
SARS PLP yeast: blocks SARS-CoV papain-like protease in a yeast assay; Potency, µM (doses to about 32.9 µM), without a hit: at the highest dose activity, positive = growth rescue; 330,000 compounds, 0.19% hits; S. cerevisiae expressing SARS-CoV PLpro, growth rescue; control for the full effect not named in the record; active means well fitted rising curve with a large enough effect; inconclusive means small, poorly fitted or top-dose-only effect; inactive means no such curve, though single readings can be large or run the other way; note: 0% is about no effect; nearly all actives have a fitted effect of over 55% in size; growth read by luminescence after 48 h
Lassa entry inh: inhibitors of Lassa virus binding or cell entry; Lassa virus pseudotype entry inhibition, cell reporter; control for the full effect not named in the record; AID 540256; Potency, µM (titrated, usually from 37.9 µM), for the others: top-dose activity change, negative = inhibition, usual class: inhibitors; 300,000 compounds, 1.2% hits; active means well fitted inhibition curve with a large enough effect; inconclusive means small, poorly fitted or top-dose-only effect, or effect the other way; inactive means flat fitted curve, though single readings scatter; tested in HEK293 cells; note: % is set by controls: 0 for no effect and ±100 for the full control effect; nearly all actives have a fitted effect of over 50% in size; luciferase read-out
Marburg entry inh: inhibitors of Marburg virus binding or cell entry. Marburg virus pseudotyped entry inhibition, cell reporter; control for the full effect not named in the record; about a third of the inactives were read at about 46 µM. Potency, µM (top dose mostly 37.8 µM), without a hit: at the highest dose activity change, negative = inhibition, actives largely listed as inhibitors. 300,000 compounds, 1.8% hits. AID 540276; active = well fitted inhibition curve with a large enough effect; inconclusive = small, poorly fitted or top-dose-only effect, or effect the other way; inactive = flat fitted curve, though single readings scatter; tested in HEK293 cells; about a fifth of its hits are not listed in these tables; note: % is set by controls: 0 for no effect and ±100 for the full control effect; luciferase read-out
Cruzain inh Det: cruzain (T. cruzi) inhibition with detergent | purified cruzain, Z-FR-AMC fluorescence, 0.01% Triton | Potency, µM, without a hit: max response, negative = inhibition, actives largely listed as inhibitors | P25779 | 200,000 compounds, 0.43% hits | AID 1478;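 note: plate controls were neutral wells for no effect and buffer without enzyme for full effect; nearly all actives have a fitted effect of over 40% in size; top concentration of the series not given in the record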
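Enzyme 1.5 nM, Z-FR-AMC 2 uM, NaOAc 100 mM pH 5.5, DTT 5 mM, Triton X-100 0.01%; 15 min RT compound preincubation; kinetic ex360/em450, 60 s delta.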
* hit, by the source's call; ? = inconclusive; · = not tested or not shown; & = joins results of further samples; [ ] = remark or other dose. Unless noted, calls come from the whole dose curve; as a rule, active = well fitted curve in the direction sought with a large enough effect; inconclusive = small, poorly fitted or top-dose-only effect, or another doubt; inactive = no such curve, though single readings can be large; an effect the other way counts as inactive or inconclusive. Potency is the fitted concentration of half-maximal effect.

SMILES,Lassa entry inh,StopGo reporter,Cruzain noTriton,NS1 inh,SARS PLP yeast,Cruzain inh Det,RE007 growth inh,Marburg entry inh
COc1cccc(N(C(=O)Cn2nnc3ccccc32)C(C(=O)NCc2ccco2)c2cccnc2)c1 (stereo not drawn),-9%,11%,5%,5%,-4%,-3.5%,13%,-1%&-1%[46.1 µM]
CCN=C1SC(C(=O)Nc2ccc(Cl)c(Cl)c2)CC(=O)N1CC (stereo not drawn),-6%,-26%,-4%,7%,-5%,10%,-8%,-2%
COc1ccc(CNC(=O)COC(=O)c2ccccn2)cc1,-2%,7%,·,·,1%,·,-9%,0%
CCOC(=O)C1(CCOc2ccccc2)CCN(Cc2ccccc2O)CC1,-6%[46.1 µM],-29%,·,·,·,·,-7%,?
COc1ccc(C(=O)Nc2ccc(NC(=O)c3cnccn3)cn2)cc1,-20%,·,1%,0%,6%,0.7%,4%,9%
O=C(/C=C/c1cccc([N+](=O)[O-])c1)Nn1c(-c2ccccc2F)nc2ccccc2c1=O,5%,?,?,?,2%,-6.2%,4%,-1%
Cc1c(N=NC2=C(O)CCCC2=O)c(=O)n(-c2ccccc2)n1C,0%,-19%,·,·,1%,·,4%,-13%[46.1 µM]
O=c1c2ccccc2nc(/C=C\c2ccccc2F)n1-c1ccc(O)cc1,-28%[46.1 µM],-8%,?,·,·,-1.9%,·,·
O=C(NCCO)C(=O)c1c(-c2ccc(Cl)cc2)cc2ccccn12,1%,-3%,·,·,1%,·,-1%,28%[46.1 µM]
CCOC(=O)c1cccc([P+](=O)O)c1,9%,-16%,9%,4%,-8%,1.3%,-12%,9%
CCC1(CC)NC(=O)N(CC(=O)Nc2ccc(OCc3ccccc3)cc2)C1=O,-18%,-15%,·,·,0%,·,7%,?
c1ccc(CN2CCCC3(CCCN(Cc4nc(COc5ccccc5)no4)C3)C2)cc1 (stereo not drawn),·,-29%,·,1%,1%,·,-14%,·
Cc1ccc(OCC(=O)Nc2ccc3c(c2)C(=O)N(CCC(=O)O)C3=O)cc1,0%,-6%,·,14%,10%,·,-16%,18%
CCN(CC)S(=O)(=O)c1ccc2c(c1)c(=O)c(C(=O)NCCOC)cn2C,-1%,1%,14%,-10%,3%,-4.2%,-4%,-8%
COc1ccc(CCNC(=O)c2cc(C(=O)c3cc(Cl)ccc3O)cn(CCc3ccc(OC)cc3)c2=O)cc1,?,-4%,?,1%,-22%,-1.1%,-2%,?
NC(=S)Nc1cnc2ccccc2c1,27%,33%[activator],2%,4%,1%,-5.7%,4%,2%
Cc1coc(C)c1C(=O)CC1(O)C(=O)N(CCc2ccccc2)c2ccccc21 (stereo not drawn),-14%,-6%,?,-45%,-3%,-2.5%,15%,?
COc1ccc(Cl)cc1C(=O)NNC(=S)NC1CCCCC1,-2%,-20%,·,3%,2%,·,-1%,2%[46.1 µM]
CCNc1nc(NC(C)C)nc(NS(=O)(=O)c2ccc(Cl)cc2)n1,2%,0%,-3%,-1%,2%,2.4%,6%,2%
Cc1ccc(NC(=O)C2CCC(CNC(=O)[C@@H]3Cc4ccccc4CN3)CC2)c(C)c1 (stereo partly drawn),·,-13%,·,-4%,-1%,·,-9%,·
c1ccc(CNc2nc(N3CCN(Cc4ccccc4)CC3)nc3ccccc23)cc1,?,?,·,-64%,-1%,·,9%,?
C/C(=N\Nc1ccc(C)c(Cl)c1)c1cccnc1,·,64%[activator],·,-52%,-7%,·,2%,·
c1ccc2c(c1)nnn2Cc1nnc2sc(-c3ccc4c(c3)OCCO4)nn12,0%,·,-6%,-96%,-3%,-7.5%,-22%,-20%
O=C(Cn1nnc(N2CCCC2)n1)N/N=C/c1ccc(Cl)cc1,-17%,-6%,·,1%,-1%,·,8%,-11%
Cc1cc(OCCCn2ccnc2)ccc1[N+](=O)[O-],17%[46.1 µM],-3%,·,17%,2%,·,-14%,15%[46.1 µM]
O=S(=O)(c1ccc(Br)cc1)N1CCCc2ccccc21,-30%,-16%,·,-43%,-14%,·,-16%,?
COc1ccc2c(c1)c(=O)c(C(=O)O)c(-c1ccc3c(c1)OCO3)n2C,22%,-17%,-10%,3%,19%,-5.5%,16%,-2%
Cn1c(=O)c2cn(Cc3ccc(Cl)cc3)cc2n(C)c1=O,1%,-17%,3%,-1%,-6%,1.1%,0%,-14%
COc1cc(CC2(CCc3ccncc3)C(=O)N(C)C(=O)N(C)C2=O)cc(OC)c1OC,2%,-2%,·,-3%,-1%,·,3%,-4%
O=C(N/N=C(\c1ccccc1)c1cccnc1)c1cccc(F)c1,?,?,·,-110%,-18%,·,?,?
Cc1cc(C(=O)NC(C)C2CCCO2)no1 (stereo not drawn),?,0%,·,0%,3%,·,2%,13%[46.1 µM]
COc1ccc(CNC(=O)CSc2ncnc3nc[nH]c23)cc1,21%,6%,-8%,?,4%,3.0%,8%,3%
COCCn1c(COc2ccc(Cl)cc2)nnc1SCC(N)=O,40%[14.3 µM],7%,0%,-1%,-5%,5.9%,-5%,6%
CN(CCCC(=O)Nc1ccc(OC(F)F)cc1)S(=O)(=O)c1ccc(F)cc1,·,?,·,-17%,0%,·,-19%,-8%[46.1 µM]
COc1cc(C(=O)Oc2c(CN3CCOCC3)cc(Cl)c3cccnc23)cc(OC)c1OC,·,?,?,-73%,?,-0.5%,-16%,-2%
CCC(C)[C@H](NC(=O)C1CC(=O)N(c2ccc3c(c2)OCCO3)C1)C(=O)N1CCCCC1 (stereo partly drawn),15%[46.1 µM],13%,·,1%,-3%,·,10%,-11%[46.1 µM]
COc1ccccc1NC(=O)CNC(=O)c1ccc(F)cc1,8%,-2%,4%,-2%,0%,2.9%,9%,23%
O=C(Nc1ccccc1C(=O)N1CCOCC1)c1ccncc1,11%,-8%,-2%,2%,?,3.7%,-11%,12%[46.1 µM]
Oc1ccc(Br)cc1-c1ccnn1-c1ccccc1,-9%,?,·,-11%,-1%,·,0%,8.9µM*
CCCCN(C)C(=O)CSc1nc(NCc2ccc(OC)cc2)c2ccccc2n1,?,-25%,-9%,6%,5%,-8.4%,-13%,?
Cc1nc(NCCCN2CCOCC2)c2cnn(-c3ccccc3)c2n1,?,37%[activator],·,·,·,·,3%,?
COc1ccc(NC(C(=O)Nc2cccc(C(C)=O)c2)c2ccccc2)cc1 (stereo not drawn),-11%,7%,-25%,3%,-12%,-4.7%,1%,4%
COC(=O)c1cc(OC)ccc1-c1ccc(OC)cc1,11%,·,-2%,-21%,-3%,-2.3%,14%,-2%
CC(C)CNS(=O)(=O)c1ccc(CCC(=O)NCc2ccncc2)cc1,·,4%,·,3%,1%,·,-13%,·
Cc1c(Cl)cccc1-n1nnc(-c2nc(-c3ccc4c(c3)OCO4)no2)c1C,?,11%,3%,·,·,3.1%,·,·
CCOC(=O)C1=C(N)N(c2ccc(N3CCCCC3)cc2)C(=O)C1,1%,-11%,-3%,3%,?,-0.1%,4%,-5%
O=C(Nc1ccc([N+](=O)[O-])cc1)N1CCCCCC1,-7%[46.1 µM],30%,·,5%,·,·,-12%,?
CCN(CC)CCNC(=O)c1cn(CC)c2ccc(S(=O)(=O)N(C)C3CCCCC3)cc2c1=O,10%[46.1 µM],-7%&2%,12%,-9%,-6%,-3.0%,-3%,1%&1%[46.1 µM]
CC(C)(C)NS(=O)(=O)c1ccc(C(=O)Nc2ccc3c(c2)OCO3)cc1,1%,47%[activator],·,6%,-6%,·,-8%,?
CCOc1cccc(-c2nn3c(-c4ccccn4)nnc3s2)c1,-6%,14%,5%,-17%,-6%,-1.0%,-1%,24%
Cc1ccc2[nH]c(C)c(CC(=O)O)c2c1,7%,·,3%,9%,-10%,1.6%,-9%,9%
CC(=O)N1CCN(C(=O)c2ccc3c(c2)S(=O)(=O)c2ccccc2C3=O)CC1,-2%[46.1 µM],-3%,·,-1%,15%,·,9%,1%[46.1 µM]
Cc1ccc(C)c(-n2c(SCC(N)=O)nnc2-c2ccccn2)c1,7%,0%,8%,6%,7%,0.2%,40%,2%[46.1 µM]
CCOc1cc(C=O)ccc1OCC(N)=O,·,2%,·,6%,0%,·,4%,·
Cc1cc(/C=C2\SC(=O)N(C)C2=O)c(C)n1-c1ccc(S(N)(=O)=O)cc1,·,7%,·,2%,-1%,·,-7%,·
COc1cccc(C2C3(C#N)C(N)=NC(OC)(OC)C23C#N)c1 (stereo not drawn),-8%,-24%,-5%,7%,28%,1.3%,2%,12%
O=C(OCC1CCNCC1)c1ccc2c(c1)OCO2,18%,5%,·,4%,-9%,·,-8%,0%
O=C(Cc1ccc(F)cc1)N/N=C/c1ccc2c(c1)OCO2,4%[46.1 µM],25%,·,3%,0%,·,-12%,0%[46.1 µM]
OC(COc1ccc2c(c1)OCO2)CN1CCN(c2ccccc2)CC1 (stereo not drawn),3%[46.1 µM],-14%,·,·,1%,·,12%,5%[46.1 µM]
COc1ccc(C)cc1NC(=O)C1CCCN1S(=O)(=O)c1ccc2c(c1)CCC(=O)N2 (stereo not drawn),·,-24%,-1%,-8%,-9%,-12%,-3%,1%

The listing continues.
SMILES,Lassa entry inh,StopGo reporter,Cruzain noTriton,NS1 inh,SARS PLP yeast,Cruzain inh Det,RE007 growth inh,Marburg entry inh
COc1ccccc1NC(=O)NC1CCCc2ccccc21 (stereo not drawn),·,0%,·,1%,-2%,·,0%,·
COc1ccc(CNC(=O)CN(C(=O)CCC(=O)Nc2ccccn2)c2ccc(C)cc2)cc1,?,24%,·,7%,4%,·,6%,-39%[46.1 µM]
CCOC(=O)N1CCC(NC(=O)CS(=O)Cc2nc(-c3ccc(Cl)cc3)oc2C)CC1 (stereo not drawn),·,?,·,0%,1%,·,1%,·
CC1CC1C(=O)Nc1ccc(S(=O)(=O)N2CCCCC2)cc1 (stereo not drawn),?,-15%,·,·,-4%,·,2%,-25%
CC(NCc1ccccc1OC1CCCC1)c1ccccc1 (stereo not drawn),?,?,·,-36%,-3%,·,1%,7.9µM*
